# OX1R antag-1: antagonists of human orexin 1 receptor (OX1R); inhibition, % at 6.6 µM; AID 485270; actives 1.8% (n = 330,000); OX1R-expressing cells, FRET antagonist read-out; in the data active = inhibition mostly above about 38%, no sharp cut-off; inactive = mostly below about 40%;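 note: 0% = agonist challenge alone and 100% = reference antagonist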
# Target sequence (O43613 whole entry, looked up): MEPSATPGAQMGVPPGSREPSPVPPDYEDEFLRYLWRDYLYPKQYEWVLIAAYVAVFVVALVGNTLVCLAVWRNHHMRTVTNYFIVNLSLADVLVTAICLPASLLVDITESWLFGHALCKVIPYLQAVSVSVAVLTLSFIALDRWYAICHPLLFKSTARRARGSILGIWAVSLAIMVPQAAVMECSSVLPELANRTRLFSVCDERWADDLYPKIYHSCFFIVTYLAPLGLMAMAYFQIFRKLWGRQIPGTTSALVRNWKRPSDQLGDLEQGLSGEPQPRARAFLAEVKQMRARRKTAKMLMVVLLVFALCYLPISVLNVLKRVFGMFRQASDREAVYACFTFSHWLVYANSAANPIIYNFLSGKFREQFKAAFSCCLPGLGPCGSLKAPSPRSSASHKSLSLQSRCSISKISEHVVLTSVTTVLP
# OX1R antag-2: human HCRTR1 antagonism. actives 0.43% (n = 330,000). AID 434989. inhibition, % at 5 µM. CHO/OX1R cells, Fluo-8 calcium fluorescence, orexin A. O43613;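 active = inhibition above its plate's threshold, mean inhibition of all tested compounds on the plate plus 3 SD, cut at about 37% in these data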;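 note: 0% = orexin A challenge wells and 100% = SB-334867-A antagonist wells; not every result past the cut was called active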
# Active calls of the source: *. Only part of the results is shown, and most or all hits are left out here.
OX1R antag-2 | OX1R antag-1 | SMILES
-1 | -1 | CCCCCCCn1ccc(O)c(CC(=O)OC)c1=O
11 | 16 | COC(=O)c1sc(N2C(=O)c3oc4ccccc4c(=O)c3C2c2cccc(O)c2)nc1C (stereo not given)
-20 | 4 | CCC(C)C(Nc1ccc(C(=O)OC)cc1[N+](=O)[O-])C(=O)OC (stereo not given)
-24 | 37 | CSc1ccccc1-c1nnc(-c2ccc(Cl)cc2)o1
-3 | 18 | COC(=O)Cc1[nH]nc2c1C(c1c[nH]c3ccccc13)C(C#N)=C(N)O2 (stereo not given)
-40 | 10 | Cc1ccc(-c2nc(NC(=O)CSc3nnc4scc(-c5ccccc5)n34)ns2)cc1
-30 | 20 | COc1ccc(C)cc1NCc1cccc(OC)c1OC
-13 | 3 | COC(=O)c1sccc1NC(=O)CC1C(=O)NCCN1C(=O)c1ccc(N(C)C)cc1 (stereo not given)
-18 | 19 | COCCCNCC1C(Oc2ccc(Cl)cc2)C(=O)N1c1ccccc1C (stereo not given)
-7 | 14 | CC(C)OC(=O)Nc1ccc2c(c1)N(C(=O)CCN(C)C)c1ccccc1CC2
3 | -1 | C=CCN(Cc1ccc(OC)c(OC)c1)C(=O)N1CCOCC1
8 | 2 | O=C(O)/C=C/C(=O)Nc1cccc(C(F)(F)F)c1
-4 | 11 | O=C(CN1CCS(=O)(=O)CC1)N/N=C/c1cccc(C(F)(F)F)c1
-24 | 8 | O=C(NCCCc1ccccc1)C1CCC(=O)N(CCc2ccc(Cl)cc2)C1 (stereo not given)
-20 | 11 | COCCCNC(=S)N1CCC(C(=O)c2ccc(Cl)cc2)CC1
-28 | 4 | CCOC(=O)C1CCCN(C(=O)CS(=O)(=O)Cc2ccccc2)C1 (stereo not given)
-3 | -1 | CC1=C(C(=O)OC2CCCCCCC2)C(c2ccc(O)cc2)NC(=O)N1 (stereo not given)
-2 | 17 | COc1ccc(S(=O)(=O)N2CCOC2CNC(=O)C(=O)NCCN(C)C)cc1 (stereo not given)
-6 | 8 | COC(=O)c1c(C(C)=O)cnc2ccc(Br)cc12
-6 | 12 | O=C(Nc1nccs1)c1cc(Cl)nc2ccccc12
-19 | 6 | COC(=O)c1ccccc1NC(=O)CN1C(=O)c2ccccc2C1=O
-10 | 15 | COc1ccc(S(=O)(=O)N2CCN(C(=O)NCc3ccc(OC)c(OC)c3)CC2)cc1
-18 | 46 | Cc1ccnc(NC(=O)c2ccc(Cl)c([N+](=O)[O-])c2)c1
-22 | 11 | OCC1(CCOc2ccccc2)CCN(Cc2cccn2-c2ncccn2)CC1
-20 | 3 | CN(CCCNS(=O)(=O)c1cccc2cccnc12)Cc1ccccc1
-28 | 22 | CCN(CC)CC(O)COc1ccc2c(c1)c(C(C)=O)c(C)n2-c1ccccc1 (stereo not given)
-6 | 20 | COc1cccc(CNC(=O)c2c(C)nn(-c3ccccc3)c2C)c1
-18 | 15 | O=C(CNC(=O)c1ccc(-c2ccccc2)cc1)OCc1c(Cl)cccc1Cl
-9 | 6 | Cn1c(SCc2ccccn2)nc2c1c(=O)[nH]c(=O)n2C
-19 | 12 | COC(=O)c1cccc(N2C(=O)C(Cl)=C(N3CCOCC3)C2=O)c1
-43 | 9 | CCCC(=O)OC(C(=O)Nc1cc(C(F)(F)F)ccc1Cl)c1ccccc1 (stereo not given)
-17 | -5 | COC(=O)Cc1c(O)ccn(CCc2ccc(S(N)(=O)=O)cc2)c1=O
-18 | 9 | COCCNc1nc(N2CCCCC2)c2cnn(C)c2n1
-21 | 13 | CC(=O)Nc1ccc(S(=O)(=O)NCCS(=O)(=O)N2CCN(c3ccccc3F)CC2)cc1
-15 | 11 | O=C(COc1ccc(Cl)cc1)NCc1nnc2c3ccccc3c(-c3ccccc3)nn12
-10 | 0 | NC(=O)CSc1cn(Cc2ccccc2)c2ccccc12
-23 | 0 | CSCC[C@H](NC(=O)OC(C)(C)C)C(=O)N/N=C/c1cccc2cccnc12
-19 | 6 | N#Cc1c(-c2ccc(Cl)cc2)ccn2nc(C3CCCCC3)nc12
-23 | 12 | COc1ccc(S(=O)(=O)CCC(=O)NCCc2cccc(C)c2)cc1
-7 | 11 | CNC(=O)CSc1nnc(-c2ccccc2)n1C
-7 | 14 | Cc1c(NC(=O)/C(=C\c2ccccc2)NC(=O)c2ccccc2)c(=O)n(-c2ccccc2)n1C
2 | 10 | Cc1nnc(NC(=O)CN2CCN(Cc3ccccc3)CC2)s1
-5 | 22 | CC(C)CC(=O)Nc1ccc(Oc2ccc(NC(=O)CC(C)C)cc2)cc1
-15 | 8 | O=C(NNc1ccccc1F)c1ccccc1
-29 | 3 | O=C(N/N=C/c1ccc(Cl)cc1)Nc1ccccc1
-24 | 17 | CC(=O)c1ccc(N2CCN(C(=S)Nc3ccccc3C(F)(F)F)CC2)cc1
7 | 17 | CC(=O)c1ccc(Sc2ccc(C(C)=O)cc2)cc1
-21 | 7 | COc1ccc2[nH]c(=O)c(CN(Cc3cccs3)Cc3nnnn3Cc3ccccc3)cc2c1

# Part of the list above in a different format.
Cc1nnc(NC(=O)CN2CCN(Cc3ccccc3)CC2)s1
  OX1R antag-2 = 2
  OX1R antag-1 = 10
CSCC[C@H](NC(=O)OC(C)(C)C)C(=O)N/N=C/c1cccc2cccnc12
  OX1R antag-2 = -23
  OX1R antag-1 = 0
CNC(=O)CSc1nnc(-c2ccccc2)n1C
  OX1R antag-2 = -7
  OX1R antag-1 = 11
COc1ccc2[nH]c(=O)c(CN(Cc3cccs3)Cc3nnnn3Cc3ccccc3)cc2c1
  OX1R antag-2 = -21
  OX1R antag-1 = 7

# Going on with the list.
OX1R antag-2 | OX1R antag-1 | SMILES
-15 | 23 | COc1ccccc1/C=C/C(=O)Nc1ccc(N2CCOCC2)cc1
4 | 47 | COc1ccccc1C(=O)NCCC(=O)N1CCCCC1
-12 | 8 | O=C(Nc1nncs1)c1ccccc1Br
-32 | 8 | CCN1CCN(c2nc3c(c(=O)n(C)c(=O)n3C)n2Cc2cccc3ccccc23)CC1
4 | -2 | Cc1nnc(SCC2=C(C(=O)O)N3C(=O)C(NC(=O)Cn4nc(C(F)F)c(Cl)c4C)C3SC2)s1 (stereo not given)
-8 | 1 | CC(C)c1ccc(-c2nnc(N)s2)cc1
-13 | 9 | COc1ccc(-n2c(Cc3cccn3C)nnc2SCC(N)=O)cc1
-16 | 44 | CCc1cc2c(=O)c(-c3ccc4c(c3)OCCO4)coc2cc1OS(C)(=O)=O
-7 | 14 | Cc1cccc(C)c1Nc1nnc(SCC(=O)Nc2cc(S(=O)(=O)N3CCCCC3)ccc2Cl)s1
4 | 4 | CC1CN(C2CCN(C(=O)c3cccc(Cl)c3)CC2)CC(C)O1 (stereo not given)
-25 | 8 | Cc1ccc(S(=O)(=O)Nc2nc3ccccc3nc2NCC2CCCO2)cc1 (stereo not given)
-20 | 18 | O=C(O)[C@H](CO)Nc1ncnc2sc3c(c12)CCC3

# Given field by field: two of the compounds above
CC(C)c1ccc(-c2nnc(N)s2)cc1
  OX1R antag-2 = -8 | OX1R antag-1 = 1

C=CCN(Cc1ccc(OC)c(OC)c1)C(=O)N1CCOCC1
  OX1R antag-2 = 3 | OX1R antag-1 = -1

# 3 compounds picked at random from those above:
OX1R antag-2 | OX1R antag-1 | SMILES
4 | 4 | CC1CN(C2CCN(C(=O)c3cccc(Cl)c3)CC2)CC(C)O1 (stereo not given)
-32 | 8 | CCN1CCN(c2nc3c(c(=O)n(C)c(=O)n3C)n2Cc2cccc3ccccc23)CC1
-12 | 8 | O=C(Nc1nncs1)c1ccccc1Br

# More records follow.
OX1R antag-2 | OX1R antag-1 | SMILES
-24 | 17 | COc1cc(OC)c(NC(=O)C2CC(=O)N(c3ccc4c(c3)OCCO4)C2)cc1Cl (stereo not given)
-1 | 25 | CN(C)C(=O)COC(=O)c1ccccc1Sc1ccccc1C#N
3 | 8 | COc1ccc(NS(=O)(=O)c2ccc(O)c(NC(=O)c3cc4c(C)nn(-c5ccc(F)cc5)c4s3)c2)cc1
-22 | 17 | COc1cccc(-c2nc(SCC(=O)Nc3nc(-c4ccccc4)c(C)s3)[nH]c(=O)c2C#N)c1
-7 | 12 | C=CCNc1nc(C(=O)OCC)nc2ccccc12
-6 | 14 | CCOC(=O)CNC(=O)c1cccs1
-37 | 24 | Cc1cc(C)c2nc(/N=C(\N)NC(=O)c3ccccc3)nc(C)c2c1
-1 | 2 | CCCCS(=O)(=O)NC1=NCN(CCO)CN1
8 | 0 | CCOC(=O)NC(=O)C(=CNc1cccc(OC)c1)C(=O)NC(=O)OCC
-8 | 8 | COc1cc(CN2CCC(C(=O)NC3CCCC3)CC2)cc(Br)c1O
-18 | 9 | Cn1cnnc1SCC(=O)Nc1ccc2c(c1)CCC2
-22 | 8 | COc1ccc(C(C(=O)NC2CCCC2)N(CCN(C)C)C(=O)c2snc(C(N)=O)c2N)cc1 (stereo not given)
-8 | 7 | CCOC(=O)c1cc2sc(C)cc2n1C(C)C(=O)OCC (stereo not given)
1 | 6 | Cc1nnc(NC(=O)CSc2nc3ccccc3[nH]2)s1
-8 | 5 | O=C(CCc1nc(-c2ccccc2F)no1)NCc1ccco1
-17 | 8 | O=C(COC(=O)C1CCN(C(=O)c2ccc(Cl)cc2)CC1)NC1CCS(=O)(=O)C1 (stereo not given)
2 | 4 | O=C(Nc1ccc(S(=O)(=O)Nc2ccccn2)cc1)c1cccc([N+](=O)[O-])c1
-13 | -9 | COc1ccc(N2C(=O)CC(N(Cc3ccc(S(N)(=O)=O)cc3)C(C)=O)C2=O)cc1 (stereo not given)
-13 | 17 | CCN1CCN(c2cc(C)c3cc(NC(=O)c4cccnc4Cl)ccc3n2)CC1
-11 | 37 | CC1(OC(=O)CCc2ccccc2)C(=O)C=C2C=C(c3ccc(C#N)cc3)N(Cc3ccccc3)C=C2C1=O (stereo not given)
-16 | 25 | Cc1ccnc(NS(=O)(=O)c2ccc(NC(=O)CCS(=O)(=O)c3ccccc3)cc2)n1
-21 | 4 | C=CCn1c(=N)n(CC(=O)O)c2ccccc21
-18 | 11 | O=C(CN(Cc1cccs1)C(=O)CNS(=O)(=O)c1ccc(Cl)cc1)NCc1ccco1
-39 | 13 | COC(=O)c1cnn(-c2cc(Oc3cccc(C)c3)ncn2)c1N
-17 | 13 | O=C(O)c1ccccc1-c1ccccc1C(=O)Nc1cccc2ccccc12
-10 | -1 | CCCCCCC(=O)OCC(=O)c1ccc2c(c1)NC(=O)CO2
-7 | 8 | CC1CCN(S(=O)(=O)c2cccc(-c3nnc(-c4cccnc4)o3)c2)CC1
-20 | 5 | CCOC(=O)c1c(SCC(=O)Nc2nc(C)cs2)nc(=O)[nH]c1C
-12 | 26 | Cc1nc(-c2ccccc2)nc2[nH]ccc(=O)c12
-33 | 12 | COc1ccc(C)cc1NC(=O)C1CC1c1ccccc1 (stereo not given)
-12 | 5 | CCOc1ccccc1-n1c(SCC(=O)N2CCOCC2)nc2ccccc2c1=O
-12 | -3 | O=C1NNC(=O)C1c1ccccc1
-9 | 3 | CC(C)NC(=S)Nc1ccc2cn[nH]c2c1
-29 | 23 | CCCCC(=O)N/N=C/c1ccc(Sc2cccc3cccnc23)o1
-18 | 23 | Cc1nc(NC(=O)c2cccs2)ccc1Br
-18 | 23 | O=C(/C=C/c1ccco1)NC(=S)Nc1cccc(-c2nc3ccccc3o2)c1
-24 | 27 | CC(C)C[C@@]12C(=O)N(c3cccc(F)c3)C(=O)N1[C@H](c1ccc(Br)cc1)[C@@H]1C(=O)N(C(C)(C)C)C(=O)[C@@H]12
-30 | 18 | Cc1ccc2c(CC(=O)N(CC3CCCO3)c3c(N)n(Cc4ccccc4)c(=O)[nH]c3=O)coc2c1 (stereo not given)
-21 | 4 | CCCCNC(=O)C1(O)c2cc(Br)ccc2NC(=O)N1c1cccc(OC)c1 (stereo not given)
-21 | 27 | COc1ccc(C2=NS(=O)(=O)N(C)C(C(=O)NCc3ccco3)=C2)cc1OC
-19 | 17 | Cc1ccc(S(=O)(=O)CCC(=O)OCC(=O)NCCc2ccccc2)cc1
-15 | 33 | COc1ccc(C(=O)Nc2sc(C(=O)N(C)C)c(C)c2C#N)cc1[N+](=O)[O-]
-17 | 11 | CC(=O)NCCn1c(SCC(=O)NC2CCCCC2)nc2ccccc2c1=O
-10 | -4 | CCCSc1nc2c(c(=O)n(C)c(=O)n2C)n1C
-14 | 6 | COc1cccc(/C=C2/C(=O)NN(c3ccc(C)c(C)c3)C2=O)c1
-22 | 18 | COc1cc(C(=O)OCC(=O)NC(=O)C2CCCCC2)ccc1OC(F)F
-6 | 17 | Cc1c(NC(=O)NC(C)N2C(=O)C3C4C=CC(C4)C3C2=O)c(=O)n(-c2ccccc2)n1C (stereo not given)
-6 | 18 | CCOC(=O)c1c(-c2ccc(C)o2)csc1NC(=O)CSc1nncs1
-2 | 9 | CC(=O)N1CCN(Cc2nc3cc(NS(C)(=O)=O)ccc3n2C)CC1
-23 | 14 | CN1C(=O)[C@H]2[C@@H](C3CC3)N3C(=O)CN(Cc4ccccc4)C(=O)[C@@]3(C)[C@H]2C1=O
-11 | 19 | Cc1cccc(C(C)C)c1NC(=O)COC(=O)COc1ccc2c(C)cc(=O)oc2c1
4 | 15 | CC(=O)Nc1ccc(NC(=O)CCCN2C(=O)c3ccccc3C2=O)cc1
-18 | 4 | CC(=O)Cn1cnc2c(sc3nc(C)cc(C)c32)c1=O
-14 | 5 | CCS(=O)(=O)NCc1ccc2c(c1)cc(C)n2C
6 | 8 | O=C(C#Cc1ccccc1)Nc1ccccc1F
-17 | 19 | CCOC(=O)c1c(NC(=O)Cn2nnc(-c3ccc(Cl)cc3)n2)sc(C)c1C

# Source: PubChem BioAssay
